NPYLR7 ag – agonists of mosquito NPYLR7 receptor, primary screen, cell-based, Aedes aegypti, calcium fluorescence, mosquito biting behavior | Aedes aegypti neuropeptide Y-like receptor 7 (NPYLR7) | HEK293T NPYLR7/Galpha15, GCaMP6s calcium fluorescence | activation, % at 10 µM | 270,000 compounds, 0.15% hits | AID 1259423, 2018; in the data active = activation above about 40%;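 also: 0% = vehicle and 100% = reference agonist at the receptor; some compounds past the cut are filed as inactive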
NPYLR7 ag max-min – second read-out of NPYLR7 ag, no call of its own (marks repeat the call); activation, %; measured here: Max-Min RFU normalised activation; some inactives read as strong as hits;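 span of the calcium signal over five minutes; 0% = vehicle and 100% = native peptide agonist; compound fluorescence can raise it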
Numbers without * were called inactive; & = joins results of further samples; ! = not active in a repeat.

smiles	NPYLR7 ag	NPYLR7 ag max-min
O=C(NCc1ccc(N2CCOCC2)nc1)c1nn(Cc2ccccc2)c(=O)c2ccccc12	7	1
Cc1ccc(NC(=O)CN(C)Cc2csc(C(C)C)n2)c(C)c1	2	2
CCOC(=O)CNC(=O)COc1coc(CN2CCN(c3ccccc3F)CC2)cc1=O	1	1
COC(=O)CSc1nc2c(c(C3CC=CCC3)c1C#N)CCC2 (stereo not drawn)	1	0
Cc1ccn2ncc(C(=O)Nc3cc(Br)ccc3F)c2n1	0	2
CCn1c(SCC(=O)N2CCCCCC2)nc2c([nH]c3ccccc32)c1=O	5	4
CSCc1nc(CCNS(=O)(=O)NCc2ccccc2)cs1	0	-17
Cc1c[nH]c(CN2CCCN(Cc3ccc(F)cc3)C(C(C)C)C2)c(C)c1=O (stereo not drawn)	3	0
CC(C)n1c(=O)[nH]c2ccccc21	-1	-3
CC1(C(=O)NCc2ccc3c(c2)OCO3)CCN1Cc1c(F)cccc1F (stereo not drawn)	7	0
O=C(CSc1nc(Cl)cc(N2CCN(c3ccccc3Cl)CC2)n1)NC(c1ccccc1)c1ccccc1	30	25
Cc1nnc2sc(-c3cccc(NC(=S)NC(=O)c4cc5ccccc5o4)c3)nn12	-7	-18
CCN(CC)CCOC(=O)c1ccc2nc(NC(=O)c3nn(C)cc3Cl)sc2c1	-1	-17
O=C1COCc2cc(-c3cc4ccccc4o3)ccc2N1CC1CC1	11	4
Nc1ccccc1Cc1ccc(O)cc1	14	10
CCn1c(SCC(=O)N2CCOCC2)nc2c([nH]c3ccccc32)c1=O	-1	-2
CN1Cc2cc3c(cc2N(CC(O)COC(C)(C)C)CCC1=O)OCO3 (stereo not drawn)	26	29
CC1CN(C(=O)Cc2cc(-c3ccc4c(c3)OCO4)on2)CC(C)O1 (stereo not drawn)	4	7
O=C(O)C1CC(=O)N(Cc2csc(-c3ccccc3)n2)C1 (stereo not drawn)	13	9
COCCC(=O)N1CCC(Oc2ccc(C(=O)NCc3cccc(Cl)c3)cc2)CC1	8	5
COC(=O)c1cc2n(n1)CCN(S(=O)(=O)c1ccc(C)cc1OC)C2	4	2
CN(Cc1ccccc1)c1ncnc(Oc2ccc3c(c2)OCO3)c1N	22	14
COc1ccc(CN(C)Cc2ccc3ccccc3n2)cc1O	30	17
CCCNC(=O)c1csc(CN(CCC)C(=O)Nc2cc(C(F)(F)F)cc(C(F)(F)F)c2)n1	9	8
NC(=O)c1ccc(NC(=O)CSc2ncc(CO)n2CC(=O)NCc2ccccc2)cc1	10	6
CC(CS(C)(=O)=O)N(C(=O)c1ccc(-n2cccc2)nc1)C1CC1 (stereo not drawn)	-1	0
O=C(CCC1CCCN(Cc2ccc(Cl)s2)C1)Nc1ccccc1F (stereo not drawn)	8	-1
CCOC(=O)C1(CCc2ccccc2)CCN(Cc2coc3ccc(C)cc3c2=O)CC1	2&1	-1&1
Cc1ccc(C)c(CC(=O)N(CCC#N)C2CC2)c1	9	5
COCCN1CCc2c(C)c(C#N)c3nc4ccccc4n3c21	10	10

Retrieved one by one from the entries so far (7):
smiles	NPYLR7 ag	NPYLR7 ag max-min
COC(=O)c1cc2n(n1)CCN(S(=O)(=O)c1ccc(C)cc1OC)C2	4	2
O=C1COCc2cc(-c3cc4ccccc4o3)ccc2N1CC1CC1	11	4
O=C(NCc1ccc(N2CCOCC2)nc1)c1nn(Cc2ccccc2)c(=O)c2ccccc12	7	1
CC(CS(C)(=O)=O)N(C(=O)c1ccc(-n2cccc2)nc1)C1CC1 (stereo not drawn)	-1	0
CCOC(=O)C1(CCc2ccccc2)CCN(Cc2coc3ccc(C)cc3c2=O)CC1	2&1	-1&1
COCCN1CCc2c(C)c(C#N)c3nc4ccccc4n3c21	10	10
COC(=O)CSc1nc2c(c(C3CC=CCC3)c1C#N)CCC2 (stereo not drawn)	1	0

Next structures
smiles	NPYLR7 ag	NPYLR7 ag max-min
Cc1cn2c(CC(=O)Nc3cc(S(C)(=O)=O)ccc3C)csc2n1	3	1
CN1CC=C2C(C#N)C(=N)C(C#N)(C#N)C(c3cccc4ccccc34)C2C1 (stereo not drawn)	23	14
C[P+](C)(C)c1ccc(C(=O)O)cc1	-1	-1
C=c1cc(C)n(CC(=O)Nc2c(C)cc(C)cc2C)c(=O)c1=C1N=C(c2ccccc2)NO1	-3	-8
Cc1ccc(C)c2sc(N(CCN3CCOCC3)C(=O)c3nc4ccccc4s3)nc12	5	-1
Cc1cc(=O)[nH]c(-n2nc(-c3cccs3)cc2NC(=O)C2CC(=O)N(c3ccc(Cl)cc3)C2)n1 (stereo not drawn)	9	5
CC1(C(=O)NC2CC3CC2C2CCCC32)CC1(Cl)Cl (stereo not drawn)	5	2
O=[N+]([O-])c1ccc(/C=N\Nc2nc(N3CCCC3)nc(N3CCCC3)n2)o1	-11	-15
CCOc1ncccc1CN1CCC(C(=O)NCCSCc2ccccc2)CC1	-4	-10
O=C1Nc2ccc(-c3ccccc3)cc2/C1=N/N1CCOCC1	-2	-2
COc1ccc2c3c1OC1CC(O)C=CC31CCN(C)C2 (stereo not drawn)	-6	-5
COc1cccc(-c2cccc(-c3ccc(NC(=O)c4c(F)c(F)c(F)c(F)c4F)cc3)n2)c1	1	2
CCc1[nH]n(-c2ccc(Cl)c(Cl)c2)c(=O)c1C1=C(N2CCOCC2)C(=O)N(C2CCCCC2)C1=O	-4	2
COc1cccc(Nc2nc(-c3ccc(CNC(C)=O)o3)c(C)s2)c1	23	21
Cc1cc(NC(=O)Cn2ccsc2=O)ccc1Br	6	5

Compounds above that contain bromine (two):
smiles	NPYLR7 ag	NPYLR7 ag max-min
Cc1ccn2ncc(C(=O)Nc3cc(Br)ccc3F)c2n1	0	2
Cc1cc(NC(=O)Cn2ccsc2=O)ccc1Br	6	5

The list goes on.
smiles	NPYLR7 ag	NPYLR7 ag max-min
CCCc1cc(N2CCCC(CCC(N)=O)C2)nc(C)n1 (stereo not drawn)	4	1
Cc1ccc(N(CCC#N)S(=O)(=O)c2ccc(C(=O)O)c(Cl)c2)cc1C	2	2
Cc1[nH]c2ccccc2c1C=NC1CCS(=O)(=O)C1 (stereo not drawn)	6&2	1&1
O=S(=O)(NC(c1ccc(Cl)cc1)C1CC1)c1ccccc1Br (stereo not drawn)	7	3
Cc1ccc(C)c(-c2csc(NC(=O)c3cnc4c(cnn4C(C)C)c3)n2)c1	-9	-11
CCn1cc(NC(=O)C2CCN(S(=O)(=O)N3CCc4ccccc4C3)CC2)cn1	10	11
FC(F)(F)c1ccc2nn(CN(C3CCCC3)C3CC3)c(=S)n2c1	1	2
NC(=NCCCCCCN=C(N)N=C(N)Nc1ccc(Cl)cc1)N=C(N)Nc1ccc(Cl)cc1	70*!	59*!
COC(=O)[C@H]1CN(C(=O)NC(C)C)CCN1C(=O)C1CCNCC1	-7	-12
O=C(c1c[nH]c(=O)[nH]c1=O)N1C[C@@H]2C3CCC(CC3)[C@@H]2C1	-1	-7
CS(=O)(=O)Cc1ccc(C(=O)Nc2cc(Cl)c(Cl)cn2)o1	-14&0	-16&-2
CN1CCNC(=O)C12CCN(C(=O)c1ccccc1-n1cncn1)CC2	21	7
Cc1ccc(N=Cc2nc(-c3ccccc3Br)oc2O)c(C)c1	-1	-4
c1cc(-c2cc(C3CCN(Cc4ccc(-c5ccn[nH]5)o4)C3)ccn2)ccn1 (stereo not drawn)	1	2
Cc1ccc(C(=O)Nc2sc3c(c2C#N)CCCC3)cc1S(=O)(=O)N1CCOCC1	-2	-7

A few values from the list:
CCn1cc(NC(=O)C2CCN(S(=O)(=O)N3CCc4ccccc4C3)CC2)cn1 – NPYLR7 ag max-min = 11
Cc1ccc(C(=O)Nc2sc3c(c2C#N)CCCC3)cc1S(=O)(=O)N1CCOCC1 – NPYLR7 ag = -2
O=C(c1c[nH]c(=O)[nH]c1=O)N1C[C@@H]2C3CCC(CC3)[C@@H]2C1 – NPYLR7 ag max-min = -7
CCCc1cc(N2CCCC(CCC(N)=O)C2)nc(C)n1 (stereo not drawn) – NPYLR7 ag = 4
FC(F)(F)c1ccc2nn(CN(C3CCCC3)C3CC3)c(=S)n2c1 – NPYLR7 ag max-min = 2
CS(=O)(=O)Cc1ccc(C(=O)Nc2cc(Cl)c(Cl)cn2)o1 – NPYLR7 ag = -14&0
O=S(=O)(NC(c1ccc(Cl)cc1)C1CC1)c1ccccc1Br (stereo not drawn) – NPYLR7 ag max-min = 3

The list continues.
smiles	NPYLR7 ag	NPYLR7 ag max-min
COc1ccc2[nH]cc(CC(=O)N3CCC(Cc4ccccn4)CC3)c2c1	6	11
CCC(Sc1nncc2ccccc12)C(=O)NCc1ccccc1 (stereo not drawn)	-1	18
C[C@@]12C(=O)N(CC3CC3)c3ccccc3[C@@H]1[C@@H](C(N)=O)CN2C(=O)NCc1ccccc1	11	25
CCCS(=O)(=O)N[C@H]1CO[C@H]2[C@@H]1OC[C@H]2OC(=O)Nc1cccc(C(F)(F)F)c1	-6	-13
CCOC(=O)CCC(=O)N1CCN(c2ccc(NC(=O)c3ccccc3OCC)cn2)CC1	-4	0
CCCN(Cc1nc2cc(Cl)ccc2c(=O)[nH]1)C(=O)C(C)(C)Oc1ccc(Cl)cc1	5	4
O=P1(NCCO)C=C(c2ccccc2)SC(c2ccccc2)=C1	3	9
COc1ccc(-c2c[nH]c3ccc(C)cc23)nn1	0	-1
Cc1noc(-c2ccc(N3CCN(C)C(C(=O)O)C3)nc2)n1 (stereo not drawn)	21	15
Nc1[nH]nc2nnc(-c3c(-c4ccccc4)nn4ccccc34)cc12	-11	-16
C=C(C)Cn1c(N2CCN(Cc3ccc(Br)cc3)CC2)nc2c1c(=O)[nH]c(=O)n2C	6	0
Cc1cc(C)n(-c2nc(C)nc(NCc3ccccc3)n2)n1	-2	-1
Cc1cccc2cc(/C=N\NC(=O)CN3CCOCC3)c(Cl)nc12	-5	-7
Cc1ccccc1CN1CCC(NCc2cccc3c2OCO3)CC1	7	1
CC(C)Oc1ccc(Nc2nccc3[nH]c(-c4cnn(C)c4)cc23)cc1	7	-4

Complete entries, quoted from the list. Order of screens: NPYLR7 ag	NPYLR7 ag max-min
Profile of CC(C)Oc1ccc(Nc2nccc3[nH]c(-c4cnn(C)c4)cc23)cc1 = 7	-4
Profile of O=P1(NCCO)C=C(c2ccccc2)SC(c2ccccc2)=C1 = 3	9
Profile of C=C(C)Cn1c(N2CCN(Cc3ccc(Br)cc3)CC2)nc2c1c(=O)[nH]c(=O)n2C = 6	0

Later entries.
smiles	NPYLR7 ag	NPYLR7 ag max-min
CCN1C=C(c2csc(N/N=C\c3ccco3)n2)C(c2ccc(C)cc2)NC1=O (stereo not drawn)	2	38
C=CCNC(=O)CSc1c(C)cnc2c1c(=O)n(C)c(=O)n2C	6	12
COC(=O)C(C)N1CC2CN(C)C(c3ccccc3)C2C1 (stereo not drawn)	14	11
Cc1onc(-c2ccccc2Cl)c1C(=O)Nc1cccc2nsnc12	-9	-11
Nc1nc(N)c2nc(-c3cccc(O)c3)cnc2n1	-11	-15
COc1ccc(C2C3COC(C)OCC3ON2C)cc1OC (stereo not drawn)	-2	-2
Cc1ccccc1CCNC(=O)c1cn(Cc2cccc(Cl)c2)nn1	-1	-3
COc1cc2c(cc1OC)CN(S(=O)(=O)c1ccc(OC)c(N3CCN(C(=O)c4ccc([N+](=O)[O-])o4)CC3)c1)CC2	13	4
O=C(NCCc1ccc(O)cc1)[C@@]12CNC[C@@H]1CN(C1CCCC1)C2	24	10
C=C(C)CN(CC)C(=O)CCc1c(C)nc2ncnn2c1C	-3	-9
CC(c1nn2c(Cc3ccccc3)nnc2s1)n1cncn1 (stereo not drawn)	3	1
COc1cccc(C(=O)NCC2=CCCN(Cc3cnc[nH]3)C2)c1	-3	11
c1ccc(CCCN2CCCC3(CCNC3)C2)cc1 (stereo not drawn)	9	8
NNC(=O)c1ccncc1	-3&-3&-1&-7&2	-9&-6&-4&-14&-2
COc1ccc(Cc2nnc3n2N(C(C)=O)C(c2ccc(Cl)cc2)=C(C(C)=O)S3)cc1	5	3
CN1CCC(Cc2noc(-c3ccc(C4CCCO4)s3)n2)CC1 (stereo not drawn)	5	2
Cc1ccc2nc(C)c(NC(=O)c3cccc(C(F)(F)F)c3)c(=O)n2c1	5	2
COc1ccc(N(Cc2cc(OC)cc(OC)c2)S(=O)(=O)C(C)C)cc1	3	2

Screens from PubChem.

Some of the compounds tested (hit frequency here may not be typical).
